High-throughput results from PubChem BioAssay.
Cruzain inh noDet – blocks cruzain activity in detergent-free assay; 2.3% of 200,000 active; Potency, µM, for the others: max response, negative = inhibition, hits mostly inhibitors; purified cruzain, Z-FR-AMC fluorescence, no detergent; P25779; active = well fitted curve in the direction sought with a large enough effect; inconclusive = small, poorly fitted or top-dose-only effect, or another doubt; inactive = no such curve, though single readings can be large; an effect the other way counts as inactive or inconclusive;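 note: plate controls were enzyme without inhibitor for no effect and buffer without enzyme for full effect; nearly all actives have a fitted effect of over 40% in size; top concentration of the series not given in the record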
Target sequence (P25779 123-467 limits assumed): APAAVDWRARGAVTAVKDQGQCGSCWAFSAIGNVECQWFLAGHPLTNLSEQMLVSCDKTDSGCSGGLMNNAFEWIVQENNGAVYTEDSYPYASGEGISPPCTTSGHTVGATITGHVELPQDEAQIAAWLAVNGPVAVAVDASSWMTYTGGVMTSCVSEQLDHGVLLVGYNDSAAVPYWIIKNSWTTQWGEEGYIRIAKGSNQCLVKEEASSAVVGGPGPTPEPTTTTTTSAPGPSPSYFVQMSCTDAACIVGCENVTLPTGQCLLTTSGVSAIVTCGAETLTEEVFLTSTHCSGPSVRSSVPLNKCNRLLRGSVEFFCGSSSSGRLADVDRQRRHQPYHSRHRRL
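Purified cruzain at 1.5 nM, pre-incubated 15 min with compound at room temperature in 100 mM sodium acetate pH 5.5, 5 mM DTT, 0.00005% Triton X-100. Reaction started with 2 uM Z-FR-AMC; AMC fluorescence increase over 60 s gives rate.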
LASV entry inh – inhibitors of Lassa virus binding or cell entry; Lassa virus pseudotype entry inhibition, cell reporter; control for the full effect not named in the record; Potency, µM (series often up to 37.9 µM), for the others: at the highest dose activity change, negative = inhibition, hits mostly inhibitors; 1.2% of 300,000 active; AID 540256; active means well fitted inhibition curve with a large enough effect; inconclusive means small, poorly fitted or top-dose-only effect, or effect the other way; inactive means flat fitted curve, though single readings scatter; tested in HEK293 cells; note: % is set by controls: 0 for no effect and ±100 for the full control effect; nearly all actives have a fitted effect of over 50% in size; luciferase read-out
Cruzain Triton – blocks cruzain activity in presence of Triton detergent; P25779; purified cruzain, Z-FR-AMC fluorescence, 0.01% Triton; Potency, µM, without a hit: max response, negative = inhibition, most hits filed as inhibitors; 0.43% of 200,000 active; AID 1478; active = well fitted curve in the direction sought with a large enough effect; inconclusive = small, poorly fitted or top-dose-only effect, or another doubt; inactive = no such curve, though single readings can be large; an effect the other way counts as inactive or inconclusive;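 note: plate controls were neutral wells for no effect and buffer without enzyme for full effect; nearly all actives have a fitted effect of over 40% in size; top concentration of the series not given in the record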
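Detergent-containing run (0.01% Triton X-100) in acetate buffer pH 5.5 with 5 mM DTT: enzyme at 1.5 nM final, 15 min compound preincubation at room temperature, then 2 uM Z-FR-AMC substrate. Activity taken as 60 s fluorescence increase at 360/450 nm.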
NS1 inh – influenza NS1 inhibition; S. cerevisiae slowed by influenza A NS1, growth recovery by OD600; Potency, µM (series often up to 46.1 µM), without a hit: at the top dose activity, positive = more growth; 0.4% of 270,000 active; AID 2326; note: actives are rising curves; nearly all actives have a fitted effect of over 50% in size
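In this qHTS, NS1 from influenza A is expressed in budding yeast, where it slows growth. Cells are switched from glucose to 2% galactose medium (pH 6.0, -URA), treated with compound, and growth recovery is read at OD600.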
Marburg entry inh – blocks Marburg virus binding to or entry into cells | Marburg virus pseudotyped entry inhibition, cell reporter; control for the full effect not named in the record; about a third of the inactives were read at about 46 µM | Potency, µM (titrated, usually from 37.8 µM), inactives show at the highest dose activity change, negative = inhibition, hits mostly inhibitors | 1.8% of 300,000 active | AID 540276; active = well fitted inhibition curve with a large enough effect; inconclusive = small, poorly fitted or top-dose-only effect, or effect the other way; inactive = flat fitted curve, though single readings scatter; tested in HEK293 cells; about a fifth of its hits are not listed in these tables; note: % is set by controls: 0 for no effect and ±100 for the full control effect; luciferase read-out
SARS PLpro yeast – inhibitors of SARS-CoV papain-like protease in yeast. Potency, µM (series often up to 32.9 µM), inactives show at the top dose activity, positive = growth rescue. S. cerevisiae expressing SARS-CoV PLpro, growth rescue; control for the full effect not named in the record. 0.19% of 330,000 active; note: 0% is about no effect; nearly all actives have a fitted effect of over 55% in size; growth read by luminescence after 48 h
2A StopGo – FMDV 2A StopGo reporter, luciferase signal. human cells with a luciferase reporter of 2A StopGo recoding; control for the full effect not named in the record. Potency, µM (titrated, usually from 57.9 µM), for the others: at the highest dose signal change, negative = less light. 1.2% of 410,000 active; active = well fitted falling curve with a large enough effect; inconclusive = small, poorly fitted or top-dose-only effect; inactive = no such curve, though single readings can be large or run the other way; tested in HEK293T cells; note: % is set by controls: 0 for no effect and ±100 for the full control effect; nearly all actives have a fitted effect of over 45% in size; luciferase light after 4 h
RE007 growth inh – less growth of the S. pombe RE007 Vpr strain; S. pombe RE007 Vpr strain, BacTiter-Glo ATP luminescence, 24 h; control for the full effect not named in the record; Potency, µM (top dose mostly 92.2 µM), inactives show at the highest dose activity change, negative = less growth; 0.21% of 360,000 active; AID 651644; active = well fitted falling curve with a large enough effect; inconclusive = small, poorly fitted or top-dose-only effect; inactive = no such curve, though single readings can be large or run the other way;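 note: % is set by controls: 0 for no effect and ±100 for the full control effect; nearly all actives have a fitted effect of over 50% in size; the assay follows cell death caused by Vpr and the record does not say whether a fall means rescue or toxicity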
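Fission yeast RE007 carrying one integrated HIV-1 vpr copy, seeded at OD 0.01 in PMG+AL medium with 23 nL pinned compound. Grown 24 h at 30 degrees; viability read by BacTiter-Glo luminescence after 5 min.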
An asterisk follows results filed as active; ? = inconclusive; · = not tested or not shown; & = joins results of further samples; [ ] = another dose, or the depositor's remark. Unless noted, calls come from the whole dose curve; as a rule, active means well fitted rising curve with a large enough effect; inconclusive means small, poorly fitted or top-dose-only effect; inactive means no such curve, though single readings can be large or run the other way. Potency is the fitted concentration of half-maximal effect.

Start of the data: the first 2 entries, to show the layout:
SMILES	Cruzain inh noDet	LASV entry inh	Cruzain Triton	NS1 inh	Marburg entry inh	SARS PLpro yeast	2A StopGo	RE007 growth inh
Cn1nc(C(F)(F)F)c(-c2ccccc2)c1NC(=O)CSCC(=O)O	·	10%	·	-3%	11%[46.1 µM]	1%	-2%	4%
CCc1ccccc1NC(=O)NNC(=O)CCc1ccccc1	·	·	·	-4%	·	2%	12%	-7%

All compounds of this part, from the start:
SMILES	Cruzain inh noDet	LASV entry inh	Cruzain Triton	NS1 inh	Marburg entry inh	SARS PLpro yeast	2A StopGo	RE007 growth inh
Cn1nc(C(F)(F)F)c(-c2ccccc2)c1NC(=O)CSCC(=O)O	·	10%	·	-3%	11%[46.1 µM]	1%	-2%	4%
CCc1ccccc1NC(=O)NNC(=O)CCc1ccccc1	·	·	·	-4%	·	2%	12%	-7%
O=C(COc1cccnc1[N+](=O)[O-])Nc1cccc(S(=O)(=O)N2CCCCC2)c1	-2%	-3%	-4.9%	-1%	-2%	15%	8%	12%
CCN(Cc1cc2cc(C)ccc2[nH]c1=O)C(=O)c1cccc([N+](=O)[O-])c1	·	·	·	-3%	·	0%	-6%	1%
Nc1nonc1-c1noc(CCCN2C(=O)c3ccccc3C2=O)n1	-5%	23%	4.5%	8%	?	12%	34%[activator]	-1%
CCC(C)C(NC(=O)OCc1ccccc1)C(=O)NC(Cc1ccc(O)cc1)C(=O)OC (stereo not drawn)	·	18%	·	1%	3%	-2%	7%	-11%
CCS(=O)(=O)c1nc(S(=O)(=O)c2ccc(Cl)cc2)c(N2CCC(O)CC2)s1	·	·	·	-1%	·	1%	22%	-13%
COc1ccc(C2OCC(C)([N+](=O)[O-])CO2)cc1 (stereo not drawn)	·	19%	·	·	2%	·	4%	9%
CN(C)c1cccc(C(=O)N/N=C/c2ccoc2)c1	·	?	·	·	10%	·	76%[activator]	2%
COc1ccc2nc3oc(C(=O)N4CCN(c5cccc(Cl)c5)CC4)cc3cc2c1	9%	-13%	-7.0%	-36%	9%[46.1 µM]	0%	?	11%
COc1ccc(S(=O)(=O)N2CCC(C(=O)N3CCN(C)CC3)CC2)cc1OC	·	-9%	·	3%	-12%[46.1 µM]	1%	-9%	0%
Cc1ccc(S(=O)(=O)N(CCO)Cc2cc3ccc(C)c(C)c3[nH]c2=O)cc1	?	1%	1.2%	-14%	-26%	-21%	0%	6%
O=C(O)C(O)C(O)c1nc2ccccc2[nH]1 (stereo not drawn)	·	5%	·	·	0%[46.1 µM]	-1%	-8%	16%
CC(C)c1ccc(NC(=O)NC2CCN(CC(=O)Nc3cccc4ccccc34)CC2)cc1	2%	?	-0.7%	9%	?	0%	-29%	0%
COc1ccc(CCNC(=O)CCC(=O)N2CCOc3ccc(C)cc32)cc1OC	·	·	·	-4%	·	-10%	-24%	-5%
CCOC(=O)Cc1csc(NS(C)(=O)=O)n1	-1%	0%	-0.4%	8%	6%	10%[6.58 µM]	·	2%
NC(=O)c1cc2cc([N+](=O)[O-])ccc2oc1=O	·	·	·	1%	·	5%	11%	-5%
O=C(NCCO)C(=O)NCC1OCCCN1S(=O)(=O)c1cccs1 (stereo not drawn)	-4%	0%	2.0%	4%	?	19%	-20%	-2%
COc1ccc(-c2cc(C(F)(F)F)nc(NCc3cccs3)n2)cc1	-9%	?	-6.2%	10%	-28%	2%	-20%	-9%
COc1ccc(OCC(=O)N2CCC(c3nc4ccccc4s3)CC2)cc1	13%	0%[46.1 µM]	-5.6%	·	?	·	-43%	·
CCc1ccc(C2C3=C(CC(C)(C)CC3=O)Nc3c2c(=O)[nH]c2nc(C)nn32)cc1 (stereo not drawn)	19%	?	-7.9%	-14%	?	-3%	21%	0%
CCc1c(C)c2ccc(OCC(N)=O)cc2oc1=O	-18%	2%	-7.1%	-3%	20%	-2%	55%[activator]	-7%
Cc1ccc2oc(C(=O)Nc3nonc3C)c(C)c2c1	·	·	·	-11%	·	7%	44%[activator]	0%
Cc1cc(C)n2nc(SCC(=O)Nc3ccccc3C)nc2n1	0%	-12%	-3.2%	-1%	-1%&-1%	0%	4%&-3%	-16%
Cc1nc2c(cnn2-c2ccccc2)c(=O)[nH]1	·	·	·	0%	-1%[46.1 µM]	0%	4%	0%
Next records.
SMILES	Cruzain inh noDet	LASV entry inh	Cruzain Triton	NS1 inh	Marburg entry inh	SARS PLpro yeast	2A StopGo	RE007 growth inh
Cc1[nH]nc2c1C(c1c[nH]c3ccccc13)C(C#N)=C(N)O2 (stereo not drawn)	·	5%	·	6%	-5%[46.1 µM]	-4%	11%	8%
CN(C)C=C1C(=O)N(C2CCCCC2)C(=O)N(C2CCCCC2)C1=O	?	?	-14%	-41%	-23%	-13%	18µM*	16%
COCCNCC1C(Oc2ccc(Cl)cc2)C(=O)N1c1ccccc1C (stereo not drawn)	·	-19%	·	·	?	4%	-18%	-5%
CCCCCCCCCCCC(=O)N/N=C/c1ccco1	-18%	14%	0.2%	5%	14%	-8%	12%	25%
COc1cc2c(cc1OC)C(C(=O)O)C(c1cc(Br)c(O)c(OC)c1)N(C)C2=O (stereo not drawn)	-2%	6%	-3.2%	8%	3%	-2%	-15%	1%
COc1ccc(-c2nc(CSCC(=O)N3CCN(c4cccc(C)c4)C(C)C3)c(C)o2)cc1OC (stereo not drawn)	?	?	-3.8%	-50%	?	6%	?	-11%
CCCCn1c(N)c(N(CCOC)C(=O)COC(=O)COc2ccccc2C#N)c(=O)[nH]c1=O	·	0%	·	·	8%	-3%	5%	-1%
CCOc1ccc(CN2CCN(c3cc(C)nc4c5c(C)cc(C)nc5nn34)CC2)cc1	12%	·	-14%	-18%	9%	2%	·	·
Cc1ccccc1CC(=O)N1CCN(C(=O)c2ccco2)CC1	·	·	·	9%	·	9%	-2%	-14%
Cc1ccccc1NC(=O)CSc1nc2[nH]c(=O)cc(O)c2s1	·	10%	·	·	-3%	5%	-30%	-9%
CCCCc1ccc(Nc2nc(CCC)cc(=O)[nH]2)cc1	-11%	?	-9.4%	-73%	-21%	-9%	?	4%
CCCn1c(SCC(=O)Nc2c(CC)cccc2CC)nnc1C(C)C	-15%	17%	-1.6%	-5%	3%	4%	2%	-3%
O=C(COC(=O)c1ccccc1Cl)NC1CCCCCCC1	·	3%	·	·	-10%	-6%	37%[activator]	2%
Cc1ccc(S(=O)(=O)N2CCCc3cc(NC(=O)c4cccc(Cl)c4)ccc32)cc1	?	-7%[46.1 µM]	-1.8%	·	·	·	3%	·
CCOC(=O)C1=C(CN(C)Cc2ccccc2)NC(=O)NC1c1ccc(OC(C)C)cc1 (stereo not drawn)	-4%	-27%[46.1 µM]	-3.0%	·	?	·	?	·
COC(=O)c1c(C)[nH]c(C)c1-c1ccccc1Cl	-2%	15%	4.0%	-81%	-6%	-26%	-18%	4%
Cc1cc(Nc2cccc(C(=O)O)c2)n2ncnc2n1	·	22%[46.1 µM]	·	-1%	?	2%	-14%	-5%
Cc1cccc(Nc2nnc(SCC3CCCCO3)s2)c1C (stereo not drawn)	12%	?	-9.6%	-39%	?	-14%	33%[activator]	-26%
COc1ccc(N2C(=O)CN(Cc3ccc(OC)c(OC)c3)C2=S)cc1	·	?	·	·	-8%[46.1 µM]	-3%	-21%	33%
Nc1nc(-c2cc3c(cc2Cl)OCCO3)cs1	·	26%	·	-27%	0%	-1%	22%	-12%
CCOc1ccc(N(C(C)C(=O)Nc2ccc(OC)cc2)S(C)(=O)=O)cc1 (stereo not drawn)	-10%	?	0.7%	-10%	6%	-3%	·	-7%
O=C(COc1ccc(Cl)cc1)N(Cc1ccc(F)cc1)C1CCS(=O)(=O)C1 (stereo not drawn)	·	·	·	-15%	·	3%	-16%	5%
Cc1ccc(S(=O)(=O)N/N=C\c2ccc(Cl)c([N+](=O)[O-])c2)cc1	-11%	-24%	-16%	-13%	-23%	-27%	17%	3%
Cc1c(NS(=O)(=O)c2ccc(S(=O)(=O)c3ccccc3)s2)c(=O)n(-c2ccccc2)n1C	·	-2%	·	-6%	1%	0%	-4%	-7%

Shown with bars between the fields: part of the list above
molecule | Cruzain inh noDet | LASV entry inh | Cruzain Triton | NS1 inh | Marburg entry inh | SARS PLpro yeast | 2A StopGo | RE007 growth inh
Cc1[nH]nc2c1C(c1c[nH]c3ccccc13)C(C#N)=C(N)O2 (stereo not drawn) | · | 5% | · | 6% | -5%[46.1 µM] | -4% | 11% | 8%
CN(C)C=C1C(=O)N(C2CCCCC2)C(=O)N(C2CCCCC2)C1=O | ? | ? | -14% | -41% | -23% | -13% | 18µM* | 16%
COCCNCC1C(Oc2ccc(Cl)cc2)C(=O)N1c1ccccc1C (stereo not drawn) | · | -19% | · | · | ? | 4% | -18% | -5%
CCCCCCCCCCCC(=O)N/N=C/c1ccco1 | -18% | 14% | 0.2% | 5% | 14% | -8% | 12% | 25%
COc1cc2c(cc1OC)C(C(=O)O)C(c1cc(Br)c(O)c(OC)c1)N(C)C2=O (stereo not drawn) | -2% | 6% | -3.2% | 8% | 3% | -2% | -15% | 1%
COc1ccc(-c2nc(CSCC(=O)N3CCN(c4cccc(C)c4)C(C)C3)c(C)o2)cc1OC (stereo not drawn) | ? | ? | -3.8% | -50% | ? | 6% | ? | -11%
CCCCn1c(N)c(N(CCOC)C(=O)COC(=O)COc2ccccc2C#N)c(=O)[nH]c1=O | · | 0% | · | · | 8% | -3% | 5% | -1%
CCOc1ccc(CN2CCN(c3cc(C)nc4c5c(C)cc(C)nc5nn34)CC2)cc1 | 12% | · | -14% | -18% | 9% | 2% | · | ·
Cc1ccccc1CC(=O)N1CCN(C(=O)c2ccco2)CC1 | · | · | · | 9% | · | 9% | -2% | -14%
Cc1ccccc1NC(=O)CSc1nc2[nH]c(=O)cc(O)c2s1 | · | 10% | · | · | -3% | 5% | -30% | -9%
